MgrA-DNA mod: modulators of Staphylococcus aureus MgrA DNA binding; fluorescence polarization; inhibition, %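 (about 10 µg/mL by stock and volumes)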; hit rate 0.13% among 84,000;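 active = above 50% in either of two replicates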;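 also: 0% = protein plus DNA without compound and 100% = DNA alone without protein; higher means less MgrA bound to DNA so lower polarization; one replicate is shown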
Sa helicase inh: S. aureus DNA helicase inhibition; purified S. aureus helicase, fluorescence unwinding assay; about half of the hits fall short of the stated cut; inhibition, %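 (tested at about 80 µM)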; hit rate 0.05% among 120,000; AID 485395;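 active = both duplicates at 50% or more, or one of them with a favoured structure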;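 also: 0% = mean of negative control wells and 100% = mean of positive control wells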
An asterisk follows results filed as active; nt = no result given. This is a subset; rates above refer to the full screens.

Screens in order: MgrA-DNA mod, Sa helicase inh
COc1cc(Cl)c(C)cc1NC(=O)C1CSC2(C)CCC(=O)N12 (stereo not given)
  nt, 11.0
NC(=O)CSc1ccc(F)cc1
  0.2, 1.0
CS(=O)(=O)NCC(c1cccs1)N1CCc2ccccc21 (stereo not given)
  nt, 7.0
CC(=O)N1C(C(=O)O)Cc2c([nH]c3ccccc23)C1(C)C (stereo not given)
  -6.2, 18.0
N#C/C(=N\OC(=O)c1ccc(Cl)cc1)S(=O)(=O)c1cccs1
  -0.9, nt
Cc1ccc(Cn2c(=N)n(CC(=O)c3ccco3)c3ccccc32)cc1
  nt, 1.0
CCN(CC)c1ccc(/C=c2\sc3nc(-c4ccco4)nn3c2=O)cc1
  nt, -107.0
C[N+](C)(C)CCCCCCCCCC[N+](C)(C)C
  4.4, nt
Cc1nc(-c2ccccc2)sc1C(=O)Nc1ccccc1
  nt, 9.0
O=C(Nc1nc2ccccc2[nH]1)c1cccc(S(=O)(=O)N2CCCC2)c1
  nt, -2.0
OCc1nc2ccccc2n1C/C=C/c1ccccc1
  -3.6, -5.0
Nc1ncccc1OCc1ccc(Cl)c(Cl)c1
  -0.8, nt
Cc1c(C#N)c2ccccc2n1CC(=O)NC1CCCCCC1
  -3.8, -1.0
Cc1ccc(C)n1-c1cccc(N)c1
  2.5, -4.0
CC(C)CNC(=O)COc1ccc(-c2nnco2)cc1
  nt, -8.0
Nc1cc(C(=O)N2CCN(c3cccc(Cl)c3)CC2)ccc1N1CC2CC(C1)c1cccc(=O)n1C2 (stereo not given)
  nt, -6.0
O=S(=O)(NCCSCc1ccco1)c1cccc2nonc12
  -0.4, nt
Cc1cc(C(=O)CSc2nc(N)c(C#N)cc2C#N)c(C)n1CCC1=CCCCC1
  nt, 4.0
CC12CCC(O)CC1=CCC1C2CCC2(C)/C(=N/NC(=O)CCC(=O)O)CCC12 (stereo not given)
  nt, -8.0
Cc1cc(C)c(S(N)(=O)=O)cc1S(N)(=O)=O
  1.0, 14.0
O=C(NCCSc1c[nH]c2ccccc12)c1ccccc1
  nt, 2.0
COc1ccc(OC)c(Nc2nc3nonc3nc2Nc2cccc(Br)c2)c1
  -1.2, nt
COc1ccc(N2C(=O)/C(=C\c3ccc(-c4ccccc4[N+](=O)[O-])o3)C(=O)NC2=S)cc1
  16.0, nt
O=c1ccccn1Cc1cn2ccccc2n1
  4.2, 5.0
Oc1ccccc1C1=Nc2ncnn2C(c2ccc(Cl)cc2)C1 (stereo not given)
  -1.4, 14.0
O=C(c1ccc(Cl)c(Cl)c1)N1CCc2ccccc21
  -3.0, 9.0
O=C1/C(=C/c2ccc(-c3ccc(F)cc3F)o2)Sc2ccccc21
  -3.9, nt
CCOC(=O)c1c(NC2=CC(=O)CCC2)sc2c1CCCCC2
  -1.1, 13.0
CCC(=O)Nc1cc2nc3[nH]c(=O)n(C4CCCCCC4)c(=O)c3nc2cc1C
  5.0, -22.0
O=C(N1CCOc2ccccc21)n1ccnc1
  0.8, -4.0
Cc1cc(CN2c3cccc4cccc(c34)S2(=O)=O)no1
  nt, -9.0
CC(C)(C)c1ccc(S(=O)(=O)NC(=O)c2cccc(Oc3cccc(C(F)(F)F)c3)n2)cc1
  0.7, 5.0
Nc1c(C(=O)c2ccccc2)sc2nsc(SCCN3CCOCC3)c12
  7.0, nt
COc1ccc(C2CC(=O)C3=C(C2)Nc2ccccc2NC3c2cccc(Br)c2)cc1 (stereo not given)
  -1.2, nt
COC(=O)CSC1=C(C#N)C(c2ccc(OCc3ccccc3)cc2)CC(=O)N1 (stereo not given)
  nt, 15.0
CC1=NN(c2ccc(Cl)c(C(=O)O)c2)C(=O)/C1=C\c1ccc(OCc2ccccc2)cc1
  0.7, nt
CCOC(=O)c1oc2ccccc2c1COc1ncnc2ccccc12
  nt, -8.0
CCn1c2ccccc2c(=O)c2c1nnn1c3ccccc3nc21
  nt, -6.0
CC(=O)Nc1ccc(Cl)c(NC(=O)c2ncoc2-c2cccc(C)c2)c1
  -0.8, -5.0
Cc1cc(NS(=O)(=O)c2ccc(NCN3C(=O)c4ccccc4C3=O)cc2)no1
  -0.3, nt
O=C(CSc1ccc2c(c1)OCCO2)N1CCN(Cc2ccccc2)CC1
  nt, -6.0
N#Cc1ccccc1N1C(=O)C=CC1=O
  nt, 5.0
Cc1ccc(N2C(=O)C(O)=CC2(O)c2ccccc2)cc1 (stereo not given)
  -1.1, 1.0
CC(C)CCOc1cccc(OCC(=O)NCC2CCCO2)c1 (stereo not given)
  0.0, -9.0
CCOc1ccccc1NC(=O)C(Cc1ccccc1)NS(=O)(=O)c1cccs1 (stereo not given)
  nt, 14.0
NC(C(=O)O)C(O)(c1ccccc1)C(F)(F)C(F)(F)F (stereo not given)
  -0.4, 13.0
CCN(CC)S(=O)(=O)c1ccc(NC(=O)COc2ncnc3sc(C)c(C)c23)cc1
  nt, -8.0
CC(C)c1ccc(NC(=S)NCCO)cc1
  nt, 2.0
CCOC(=O)c1nccn1CC(=O)Nc1cccc(Cl)c1C
  nt, 17.0
CC(C)CNC(=O)C1=CC(c2cccs2)=NS(=O)(=O)N1C
  0.6, 3.0
CC(=O)Nc1cccc(Oc2cnc3ccccc3n2)c1
  -0.1, nt
Cc1ccc(-c2nc3ccccc3nc2NN)cc1
  -0.6, 6.0
C/C=C(/C)C(=O)OC1CC(O)(C(C)C)C2C(OC(=O)c3ccc(O)cc3)CC(C)=CCC12C (stereo not given)
  -0.9, -1.0
O=C(/C=C/c1ccc2c(c1)OCCO2)NC1CCCCC1
  nt, -22.0
CCOC(=O)C1CCCCN1S(=O)(=O)c1ccc2c(c1)C(=C(C)C)C(=O)N2 (stereo not given)
  nt, 5.0
COc1cc(Cl)c(NS(=O)(=O)c2cc(C(F)(F)F)cc(C(F)(F)F)c2)c(OC)c1
  -1.6, nt
COc1cccc(C2=NS(=O)(=O)N(C)C(C(=O)NC(C)(C)CO)=C2)c1
  nt, -13.0
CCN1CCN(CCCNC(=O)c2ccc3c(Cl)c4c(nc3c2)CCCC4)CC1
  nt, -17.0
CC1(C)CC(C(CC(=O)O)Cc2ccccc2)CCO1 (stereo not given)
  -2.6, 0.0
CN(C)c1ccc(CN2C(=O)CCC2(C)C(=O)N2CCCC2)cc1 (stereo not given)
  nt, 19.0

(continued)
Screens in order: MgrA-DNA mod, Sa helicase inh
COc1cc(/C=C2\SC(=S)N(CC(=O)Nc3ncc(Cc4ccccc4Cl)s3)C2=O)cc(OC)c1OC
  1.3, nt
O=C(CCBr)N1CCN(C(=O)CCBr)CC1
  2.9, nt
COc1cc(C(=O)C(C#N)c2nc3ccccc3s2)cc(OC)c1OC (stereo not given)
  -1.8, 6.0
N#CCCN(Cc1ccccc1)S(=O)(=O)c1ccccc1
  -0.7, nt
COC(=O)C1=NOC2(CC(=O)N(c3ccc(Cl)cc3)C2=O)C1 (stereo not given)
  0.0, -11.0
CCNC(=S)N/N=C/c1ccc(O)cc1
  nt, 1.0
O=C1Nc2ccccc2SC1C1C(=O)Nc2ccccc21 (stereo not given)
  3.5, 4.0
CC(=O)N1C=CC(c2c[nH]c3ccccc23)C=C1
  -0.6, nt
c1ccc(-c2nnc(-n3nnc4ccccc43)c3ccccc23)cc1
  1.2, nt
Cc1cc2cc(CNC(=O)Cc3cccc4ccccc34)ccc2[nH]1
  0.8, 13.0
O=C(Oc1ccc2c3c(c(=O)oc2c1)CCC3)C1CCCCC1
  nt, 11.0
CCOC(=O)c1sc(C)c2c(=O)n(Cc3ccccc3)c(C)nc12
  -0.9, 4.0
COC(=O)c1ccccc1NC(=O)N1CCOc2ccccc21
  nt, 12.0
Brc1ccc2oc(-c3ccn[nH]3)cc2c1
  0.0, nt
Clc1ccc(-c2nc(-c3cnccn3)no2)cc1
  2.1, nt
CCC(C)C1Nc2ccc(C(=O)NCCc3ccc(OC)c(OC)c3)cc2NC1=O (stereo not given)
  nt, 36.0
Brc1ccc(NC2=NCCCCCC2)cc1
  nt, -3.0
CCOC(=O)Cc1csc(-c2ccc(Oc3ccc(C(F)(F)F)cn3)cc2)n1
  -2.0, nt
CCOC(=O)c1c(NC(C)=O)sc2c1CCCCC2
  -1.6, 9.0
CC(C)(C)NC(=O)Cn1nnc(-c2ccc3c(c2)OCO3)n1
  nt, 9.0
CC1C(=O)c2ccccc2OC1O (stereo not given)
  nt, 25.0
O=C(OCc1ccco1)C1c2ccccc2Oc2ccccc21
  nt, 5.0
CC(C(=O)Nc1ccccc1C(=O)NCc1ccco1)N(c1ccccc1)S(C)(=O)=O (stereo not given)
  4.9, 16.0
Cc1cccc(Cn2c(=O)n(Cc3ccccc3)c(=O)c3c(C)c(C)sc32)c1
  1.5, 3.0
C/C(=N\N)c1ccc2c(c1)-c1ccccc1C2
  nt, 6.0
COCCN(Cc1nnc(-c2cccs2)o1)C(=O)c1cc2ccccc2o1
  nt, -2.0
CCSc1nnc(-c2ccccc2)n1-c1ccccc1
  3.0, 8.0
COc1ccccc1C1CCN(C(=O)CSCc2cccc3ccccc23)CC1
  1.4, nt
CCOC(=O)Cc1cc(=O)n2[nH]c(C(C)(C)C)cc2n1
  -1.6, nt
CCOC(=O)c1nc2ccccc2nc1NCCOC
  nt, -68.0
CCOC(=O)Cc1nnc2c(Nc3ccccc3OC)nc3nonc3n12
  2.4, -7.0
O=C(CSc1cc(Cl)ccc1Cl)NCCCn1ccnc1
  3.3, -14.0
CCOC(=O)Cn1c(=O)oc2cc(S(=O)(=O)N(CC)CC)ccc21
  nt, 6.0
O=C(Cn1c(=O)n(CC(=O)NC2CCCC2)c(=O)c2ccccc21)Nc1cccc(F)c1
  nt, 8.0
CCCN(CC(=O)Nc1ccc(F)c(F)c1F)C(=O)/C=C/c1nc2ccccc2o1
  nt, 18.0
COc1nsnc1N1CCOCC1
  -6.5, 8.0
CCn1c(CCCNC(=O)c2ccc(Cl)cc2)nc2ccccc21
  nt, -5.0
Cc1csc(C2C(N)=NC(S)=C(C#N)C23CCCCC3)n1 (stereo not given)
  nt, -4.0
COc1ccccc1Cn1c(=S)[nH]c2cc(C(=O)N3CCC4(CC3)OCCO4)ccc2c1=O
  -3.9, 6.0
CCOC(=O)c1c(NC(=O)c2ccc(Cl)c([N+](=O)[O-])c2)sc(C(=O)Nc2ccccc2F)c1C
  -1.5, nt
COc1ccc(/C(C#N)=C/c2cc(Br)cs2)cc1
  -3.1, nt
O=C(/C=C/c1ccco1)NC(=S)N1CCNC(=O)C1CC(=O)OCC1CCCO1 (stereo not given)
  nt, 10.0
O=C1CN(C(=O)CSCc2c(F)cccc2Cl)c2ccccc2N1
  -2.5, 6.0
COc1cc(CNc2ccc3[nH]c(=O)[nH]c3c2)ccc1OCC(N)=O
  nt, 6.0
Cc1cc(=O)oc(C)c1C(=O)NCCN(C)Cc1ccccc1
  -2.4, 10.0
O=C1c2ccccc2-c2nnc(-c3ccc(Cl)cc3)cc21
  4.0, 1.0
Cc1ccc(C(=O)CCC(=O)O)s1
  -4.6, 16.0
N#Cc1cc2c(=O)n3ccccc3nc2n(Cc2cccnc2)c1=O
  nt, -64.0
CCNC(=S)N1CC=C(c2ccccc2)CC1
  -0.8, -1.0
CSc1sc(C#N)c2c1C(O)CCC2 (stereo not given)
  0.0, nt
O=C(O)/C(=C\c1cccc(C(F)(F)F)c1)Sc1nnc(-c2ccco2)o1
  nt, -4.0
c1ccc(SCc2cn3cccnc3n2)nc1
  nt, 9.0
COc1ccc(S(=O)(=O)N(C(=O)Oc2ccccc2)c2ccc3oc(=O)sc3c2)cc1OC
  0.1, 13.0
CCOC(=O)C(C)Oc1ccc2c(-c3ccccc3)cc(=O)oc2c1 (stereo not given)
  -1.6, nt
Cc1cc2ccccc2n1-c1ccc(C(=O)NC2CCCC2)s1
  nt, -24.0
CC(C)C(=O)O/N=C(\N)c1ccccc1
  3.2, nt
O=c1c(Cl)c(N2CCN(CCO)CC2)cnn1-c1ccccc1
  -0.2, 5.0
CS(=O)(=O)c1ccc(S(C)(=O)=O)s1
  -3.2, 9.0
CCCCC1(CC)C(=O)NC(=O)NC1=Nc1ccc(OC)cc1 (stereo not given)
  3.0, 8.0
Cc1ccc(NC2=NCC(=O)N2C2CCCC2)cc1C
  -0.9, 9.0

3 compounds from above, arranged by their value in Sa helicase inh, lowest first:
Molecule	MgrA-DNA mod	Sa helicase inh
CCN1CCN(CCCNC(=O)c2ccc3c(Cl)c4c(nc3c2)CCCC4)CC1	nt	-17.0
O=C(CSc1ccc2c(c1)OCCO2)N1CCN(Cc2ccccc2)CC1	nt	-6.0
Cc1ccc(C)n1-c1cccc(N)c1	2.5	-4.0

Next part
Screens in order: MgrA-DNA mod, Sa helicase inh
CCOC(=O)C1CCCN(C(=O)c2cc(Nc3ccc(OC)cc3)nc3ccccc23)C1 (stereo not given)
  0.3, 6.0
N#C/C(=C\Nc1cnccn1)S(=O)(=O)c1ccc(C(F)(F)F)cn1
  4.5, nt
CCc1cc2c(=O)c(-c3ccccn3)coc2cc1O
  -1.1, 3.0
COc1ccc(-c2noc(N3CCC(C(=O)O)CC3)n2)cc1OC
  nt, 11.0
CCOCC(=O)N1CCN(c2cccc(C)c2C)CC1
  -2.6, -1.0
CC1CCC2C(C1)c1sc(=O)[nH]c1SC2(C)C (stereo not given)
  nt, 11.0
COC(=O)c1sc(=S)n(-c2cccc(OC)c2)c1N
  nt, 30.0
O=C(O)Cc1cc(=O)oc2cc(O)ccc12
  nt, 10.0
CSc1sc2c(O)cc(=O)[nH]c2c1C#N
  16.6, 3.0
Fc1c(CSC(=S)N2CCOCC2)cccc1CSC(=S)N1CCOCC1
  -1.3, nt
COCC(C)n1c(COc2ccccc2F)nnc1SCc1nnc(-c2ccccc2)o1 (stereo not given)
  nt, -12.0
Cc1c(C(=O)NCCC2=CCCCC2)sc2ncnc(N3CCCCC3C)c12 (stereo not given)
  0.3, 1.0
